Choline anaer gr – growth inhibitors of anaerobic choline-fed gram-negatives, minimal medium, absorbance | calls only | 55,000 compounds, 0.2% hits | AID 1963822, 2024 | Gram-negative bacterium anaerobic choline minimal medium; hits give low values; many inactives read as strong as hits in the columns shown;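 active = growth z-score on choline under -2 at 7 or 20 h with little or no fall on glycerol, limits in tiers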;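 note: stock transfer was 300 nL into about 50 µL; the organism is E. coli; final concentration not given here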
Choline anaer gr early – also measured in Choline anaer gr; calls as there; z-score; measured here: choline growth z-score, timepoint 1;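 score of optical density at 7 h as mean of two plates; lower means less growth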
* = called active by the depositor; i = inactive; & = joins results of further samples. An excerpt. The share of hits here may be higher or lower than overall.

Each structure is followed by: Choline anaer gr early, Choline anaer gr
- COc1cccc(CNC(=O)C2CCN(c3ncnc4c3sc3ncccc34)CC2)c1
→ 1, i
- O=C(Nc1ccc(Cl)cc1)NC(Cc1ccc2c(c1)OCO2)Cc1ccc2c(c1)OCO2
→ 0.19, i
- Oc1c(C(c2ccccn2)N2CCC(Cc3ccccc3)CC2)cc(Cl)c2cccnc12 (stereo unspecified)
→ 0.49, i
- CCn1c(=O)c2c(C(=O)Nc3ccccc3OC)cc(=O)n(CC)c2n(C)c1=O
→ 0.35, i
- COC(=O)CN1C(=O)CCSc2ccccc21
→ 1.1, i
- O=C(c1ccc2c(c1)OCO2)N1CCN(c2ncnc3c2nnn3Cc2ccccc2)CC1
→ 0.42, i
- O=C(CSCc1nc(-c2ccc(Cl)cc2)no1)Nc1nccs1
→ 1.6, i
- Brc1ccc(-c2ccc(CNCc3ccc4c(c3)OCO4)o2)cc1
→ -1.3, i
- O=C(NCCC1CCN(C(=O)NC2CCCCC2)CC1)c1ccc(Cl)nc1
→ -0.22, i
- CCC(=O)Nc1cc2nc3[nH]c(=O)n(C)c(=O)c3nc2cc1C
→ -0.29, i
- Cc1nn(CCCC(=O)NCCc2ccc(Cl)cc2)c(=O)c2nn(-c3ccccc3)c(C)c12
→ 1.7, i
- CCOC(=O)COc1ccc(CC)cc1C(=O)c1ccn2nc(-c3ccccc3)cc2n1
→ 0.43, i
- COc1ccc(NC(=O)N2CCN(c3nc4cc(F)ccc4n4cccc34)CC2)cc1OC
→ 1.4, i
- CC(C)CN1CC(O)=C(c2nc3ccccc3c(=O)[nH]2)C1=N
→ 0.53, i
- Cc1c(C(=O)N2CCN(c3ccccc3)CC2)oc2ccc3c(c12)C(O)CC1(CCCCC1)O3 (stereo unspecified)
→ -0.05, i
- CC(C)Oc1cccc(NC(=O)C2CCCN(S(=O)(=O)Cc3ccc(Cl)cc3)C2)c1 (stereo unspecified)
→ 1.6, i
- CCOC(=O)c1ccccc1NC(=O)Cn1cc(-c2nc(-c3ccc(C)cc3)no2)ccc1=O
→ -0.9, i
- CC(C)CC(C)N1CCN(c2ccc(NC(=O)c3ccc(Br)cc3)cc2C(=O)O)CC1 (stereo unspecified)
→ 1.2, i
- Cc1nn(-c2ccc(F)cc2)c2c1c(=O)c(C(=O)NC(C)C)cn2C
→ -0.75, i
- Cc1cc2nc(C(=O)N3CCN(c4cccc(C)c4C)CC3)c(=O)n(C)c2cc1C
→ 1.3, i

The list goes on.
Each structure is followed by: Choline anaer gr early, Choline anaer gr
- CCC1Cn2c(C(=O)NCCCN3CCOCC3)cc3c(Cl)ccc(c32)O1 (stereo unspecified)
→ 0.68, i
- CC(=O)Nc1ccc(C(=O)Nc2ccccc2N)cc1
→ -0.86, i
- Clc1ccccc1CCNc1ncnc2oc3c(c12)CCCC3
→ 1.5, i
- Cc1oc(C)c2c(=O)cc(-c3ccc4c(c3)OCO4)cc(OC(=O)c3ccc(C(C)(C)C)cc3)c12
→ -1.4, i
- COc1ccc(-c2nc(CNC(=O)c3ccc(-c4noc(C(C)C)n4)cc3)no2)cc1
→ 0.26, i
- CC1(C)CC(=O)c2cc(-c3nc(-c4ccc(Oc5ccccc5)cc4)cs3)c(=O)[nH]c2C1
→ 0.7, i
- Cc1nc(-c2cc(S(=O)(=O)NCC(=O)N3CCN(c4cccc(Cl)c4)CC3)c(C)s2)no1
→ 0.07, i
- Cc1cc(C)cc(-n2ccn3c(CCC(=O)NCCc4c[nH]c5ccccc45)nnc3c2=O)c1
→ -0.31, i
- CCS(=O)(=O)N1CCCN(C(=O)c2ccoc2)CC1
→ -0.13, i
- Cc1ccc2snc(C(=O)N3CCN(S(=O)(=O)c4ccc(C)c(C)c4)CC3)c2c1
→ 1.5, i
- Cc1cc(C2CCCN2C(=O)c2cnn3c(C(F)(F)F)cc(-c4ccccc4)nc23)on1 (stereo unspecified)
→ 0.15, i
- Cc1cc(C)c2c(-n3cccc3)nn(CCCC(=O)Nc3cccc(Cl)c3)c2n1
→ 0.75, i
- Cc1nc(-c2cc(S(=O)(=O)Nc3ccc(F)cc3F)c(C)s2)sc1C
→ -0.24, i
- CCCN1C(=O)CCc2cc(NC(=O)CN3C(=O)c4ccccc4C3=O)ccc21
→ 0.28, i
- CC(C)c1ccc(O)c(NC(=O)COc2ccc(Cl)cc2-n2cnnc2)c1
→ 0.25, i
- CC(=O)N1CCCSc2ccc(S(=O)(=O)NCCCN3CCCC3=O)cc21
→ -0.44, i
- S=c1[nH]ccn2nc(-c3ccccc3)cc12
→ -0.64, i
- Cc1cc(C2CCCN2S(=O)(=O)c2ccc(Br)cc2)on1 (stereo unspecified)
→ 1.2, i
- CCN(CC)S(=O)(=O)c1ccc2c(c1)N(CC(=O)Nc1ccc(Cl)cc1)C(=O)C1CCCN21 (stereo unspecified)
→ -1.2, i
- O=C(c1cc(-c2ccncc2)n(-c2ccccc2)n1)N1CCN(c2ccccc2)CC1
→ 0.19, i

(next part)
Each structure is followed by: Choline anaer gr early, Choline anaer gr
- Cc1ccc(Sc2nc3ccccc3n3nnnc23)cc1
→ 0.94, i
- O=C(NCCc1csc(-c2ccc(F)cc2)n1)C1CCCC1
→ -1.3, i
- O=C(Nc1ccc(F)c(F)c1)C1Oc2ccccc2NC1=O (stereo unspecified)
→ 1.1, i
- Cc1ccc(-c2noc(CCC(=O)NC(C)(C)C)n2)c(=O)n1C(C)C
→ -0.39, i
- Cc1ccc(OCc2cc(=O)n3oc(C)cc3n2)c(NC(=O)COc2cc(C)ccc2C)c1
→ -0.21, i
- Cn1nc(-c2nc(C3CC3)no2)c2c1CCN(S(=O)(=O)c1cccc(F)c1)C2
→ -0.1, i
- CCc1nn(-c2ccccc2)c2nc(-c3ccccc3)nc(SCC(=O)Nc3ccc4c(c3)OCCO4)c12
→ 0.3, i
- c1ccc(Nc2cc(-c3ccccc3)nc3nc(-c4cccnc4)nn23)cc1
→ -0.21, i
- Cc1nc(-c2cc(S(=O)(=O)N3CCOCC3)c(C)n2C)sc1C(=O)N1CCCC1
→ -1.7, i
- S=c1ccc(N2CCCCCC2)n[nH]1
→ -0.24, i
- COc1ccc(C2CC(=O)C3=C(C2)Nc2ccccc2NC3c2ccc(C)cc2)cc1 (stereo unspecified)
→ -0.92, i
- Cc1csc2nc(COc3cccc(NC(=O)C(C)Oc4ccccc4)c3)cc(=O)n12 (stereo unspecified)
→ -0.38, i
- O=C(Nc1cc(F)cc(F)c1)NC1CCN(c2ccc(F)cc2)C1=O (stereo unspecified)
→ 1.3, i
- CCn1nccc1C1CCCN1S(=O)(=O)c1c(C)noc1C (stereo unspecified)
→ 0.16, i
- O=c1ccc(-c2ccc3c(c2)OCO3)nn1CCc1nc(-c2ccc(Br)cc2)no1
→ 0.62, i
- CCOC(=O)C1CCCN(C(=O)CS(=O)(=O)c2ccc3c(c2)S(=O)(=O)N=CN3)C1 (stereo unspecified)
→ 1.4, i
- O=C(Nc1ccc(F)c(Cl)c1)c1ccc(C2Nc3ccccc3S(=O)(=O)N2)cc1 (stereo unspecified)
→ 0.66, i
- Cc1nc2cccnc2n1-c1cc(C(=O)NCCCN2CCN(C3CCCCC3)CC2)ccc1Cl
→ -1.1, i
- CC(C)NC(=O)Cn1c(=O)n(C(C)C)c(=O)c2nscc21
→ 1.3, i
- Cn1c2c(c(=O)n(C)c1=O)CN(Cc1ccc3c(c1)OCO3)CN2
→ -0.94, i

Continued.
Each structure is followed by: Choline anaer gr early, Choline anaer gr
- CC(=O)N1N=C(c2c(O)n(C)c(=S)n(C)c2=O)CC1c1ccc(Cl)cc1 (stereo unspecified)
→ -0.64, i
- O=C(O)c1cccnc1
→ 0.08, i
- COc1ccccc1-c1csc(-c2c(N)c(C(=O)c3ccc(Cl)cc3)n3ccccc23)n1
→ -1.2, i
- CCCCN1C=C(OC(=O)c2ccccc2)c2ccccc2S1(=O)=O
→ 2, i
- CCCN1CCN(C(=O)c2cc(C)nc3c(-c4ccc(F)cc4)cccc23)CC1
→ 0.51, i
- CC1CCCN(C(=O)Nc2cn(C)c(=O)c3ccccc23)C1 (stereo unspecified)
→ 0.27, i
- COc1ccc(NC(=O)c2nnc(C3CCN(S(=O)(=O)Cc4ccccc4)CC3)s2)cc1
→ 0.49, i
- CC(C)Nc1ncnc2c1cnn2-c1cccc(Cl)c1
→ -1.4, i
- CC(C)CNC(=O)c1cccn2c(-c3ccc(F)cc3)nnc12
→ 0.1, i
- Cc1nc(Cl)c2c(C)c(C)n(-c3ccc(F)cc3)c2n1
→ 0.13, i
- CCOc1ccc(-c2n[nH]c3c2C(c2cccnc2)N(c2ccc(Br)cc2)C3=O)cc1 (stereo unspecified)
→ -0.84, i
- O=C(CC1COc2ccccc2N1Cc1ccc(F)cc1)Nc1nccs1 (stereo unspecified)
→ 0.98, i
- COCc1nc2ccccc2n1CCCOc1ccccc1
→ 0.63, i
- CC(=O)N(Cc1ccc(F)cc1)Cc1ccc2c(c1)CN(C(=O)Cc1ccc(C)cc1)CCO2
→ -0.11, i
- COC(=O)[C@@H]1CC2=CC(=O)CC[C@]2(C)[C@@]23O[C@@H]2C[C@@]2(C)[C@@H](CC[C@@]24CCC(=O)O4)[C@H]13
→ 0.44, i
- Cc1ccc2[nH]c(C(=O)Nc3ccccc3)cc2c1
→ 1.7, i
- CC(C)C[C@H](NC(=O)[C@H](O)[C@H](N)Cc1ccccc1)C(=O)O
→ -0.1, i
- CCOC(=O)c1nc(NCc2ccccn2)c2c(CC)noc2n1
→ -0.28, i
- CCc1ccc(S(=O)(=O)N2CCC3(CC2)NCCN=C3NCc2ccc(C)cc2)cc1
→ -0.37, i
- Cc1cccc(-n2nc(C)c(C(=O)O)c2-n2cccc2)c1
→ 1.6, i

Pulled one by one from the entries so far:
Each structure is followed by: Choline anaer gr early, Choline anaer gr
- O=C(CC1COc2ccccc2N1Cc1ccc(F)cc1)Nc1nccs1 (stereo unspecified)
→ 0.98, i
- Cc1nn(CCCC(=O)NCCc2ccc(Cl)cc2)c(=O)c2nn(-c3ccccc3)c(C)c12
→ 1.7, i

Next structures:
Each structure is followed by: Choline anaer gr early, Choline anaer gr
- O=C(Nc1ccc(Cl)cc1)Nc1nnc(CC(=O)N2CCOCC2)s1
→ -0.75, i
- COc1ccc(N2CCN(c3ncc(S(=O)(=O)c4ccc(C)cc4)c(N)n3)CC2)cc1
→ 0.42, i
- CN1CC(=O)N2C(Cc3c([nH]c4ccccc34)C2c2ccc3c(c2)OCO3)C1=O (stereo unspecified)
→ 0.36, i
- Cc1cc(-c2nn3c(C4CCCCC4)nnc3s2)c2ccccc2n1
→ -0.05, i
- Cc1cccc(C)c1OCc1cc(=O)n2ccsc2n1
→ 0.63, i
- CC(C)c1ccc(S(=O)(=O)Nc2ccc3nncn3n2)cc1
→ -0.01, i
- CCCS(=O)(=O)NC1COc2ccccc2C1 (stereo unspecified)
→ 0.15, i
- CCOC(=O)c1c(C)[nH]c(NC(=O)Nc2ccc(C(=O)OC)cc2)c1C
→ -1.1, i
- CCCCCCCCCCCCCCCC(=O)OC[C@@H](O)COP(=O)([O-])OCC[N+](C)(C)C
→ 1.1, i
- O=C(CCC1CCCC1)N1CCc2nc[nH]c2C1
→ -0.56, i
- CCOC(=O)CC1=CC(SCC(=O)Nc2c(C)cc(C)cc2C)=Nc2cc(C)c(C)cc2N1
→ -0.44, i
- CCN(CC)S(=O)(=O)c1cc(C(=O)N2CCN(c3ccccc3)CC2)ccc1N1CCCC1
→ 0.17, i
- O=S(=O)(Nc1ccc(-c2ccc(N3CCCC3)nn2)cc1)c1ccc2c(c1)OCCO2
→ 0.72, i
- N#CC1=CN(c2ccccc2Br)c2ccccc2S1(=O)=O
→ 0.12, i
- Cc1cc(C)nc(N2CCN(c3cc(C)nc4nc(C(F)(F)F)nn34)CC2)n1
→ 0.78, i
- COc1ccc(NC(=O)c2ccc(=O)n(Cc3ccc(F)cc3)c2)c(OC)c1
→ 1, i
- Cc1oc(-c2ccc(C(C)C)cc2)nc1Cn1c(=O)c2cccnc2n(-c2ccccc2)c1=O
→ 1.1, i
- O=C1N=C(O)CN1/N=C/c1ccc(-c2ccc([N+](=O)[O-])cc2)o1
→ -0.72&-0.36&0.35, i
- Cc1sc(C)c(S(=O)(=O)Nc2ccccc2Cl)c1-c1cc(C(F)(F)F)on1
→ 1.7, i
- COc1ccc(C2CC(=O)N(c3ccc(F)c(C)c3)C(=O)C2)cc1OC
→ -1.8, i

(further entries)
Each structure is followed by: Choline anaer gr early, Choline anaer gr
- CCOc1ccc(NC(=O)CCn2c(C(F)(F)F)nc3cc(S(=O)(=O)N(C)C)ccc32)cc1
→ -0.15, i
- Cn1cc(C(=O)N2CCCC2)c2[nH]c(=O)n(-c3ccc(Cl)cc3)c(=O)c21
→ -0.66, i
- OC[C@H]1O[C@@H](n2cnc3c(NC4CCCCC4)ncnc32)[C@H](O)[C@@H]1O
→ -0.23, i
- COc1ccc(OC)c(NS(=O)(=O)c2ccc3c(c2)-c2oncc2CO3)c1
→ -0.02, i
- O=S(=O)(c1ccc(Br)cc1)N1CCN(c2nc3ccccc3n3cccc23)CC1
→ 0.79, i
- O=S(=O)(c1ccc(-c2noc(COc3ccc(F)cc3)n2)cc1)N1CCCC1
→ -0.02, i
- Cc1nc(-n2nc(C)c(Cc3ccccc3)c2C)sc1C(=O)NCCO
→ 0.36, i
- COc1ccccc1-c1cc2n(C)c(C)c(CCC(=O)NCc3ccc4c(c3)OCO4)c(=O)n2n1
→ -0.19, i
- O=C(CC1=NS(=O)(=O)c2ccccc2N1)NCc1ccc(Cl)cc1
→ -1.6, i
- Cn1nc(C(=O)NCc2ccccc2)c2c1CCN(C(=O)c1c(F)cccc1F)C2
→ 0.71, i
- CCOc1ccc(NC(=O)NC2CCN(c3cc(C)nc4ncnn34)CC2)cc1
→ 0.61, i

A different layout for part of the listing above.
Molecule | Choline anaer gr early | Choline anaer gr
Cc1nc(-n2nc(C)c(Cc3ccccc3)c2C)sc1C(=O)NCCO | 0.36 | i
COc1ccccc1-c1cc2n(C)c(C)c(CCC(=O)NCc3ccc4c(c3)OCO4)c(=O)n2n1 | -0.19 | i
O=C(CC1=NS(=O)(=O)c2ccccc2N1)NCc1ccc(Cl)cc1 | -1.6 | i

Assay outcomes from PubChem BioAssay.
